From PubChem
Beta2AR agonist: beta2AR agonists driving receptor internalization, primary screen, cell-based, FAP fluorogen, flow cytometry; Beta-2 adrenergic receptor (Homo sapiens), P07550; Am2.2-beta2AR cells; reference of the scale not given here; response, % (test concentration not listed); 340,000 tested, 0.43% active; AID 504454, 2011;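 active = response above a set limit, near 3 SD of response in nonfluorescent compounds, cut at about 42% in these data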;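 note: stock transfer was 100 nL into about 11 µL; a reference agonist was the positive control; negative values mostly stem from fluorescent compounds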
Target sequence (P07550 whole entry, looked up): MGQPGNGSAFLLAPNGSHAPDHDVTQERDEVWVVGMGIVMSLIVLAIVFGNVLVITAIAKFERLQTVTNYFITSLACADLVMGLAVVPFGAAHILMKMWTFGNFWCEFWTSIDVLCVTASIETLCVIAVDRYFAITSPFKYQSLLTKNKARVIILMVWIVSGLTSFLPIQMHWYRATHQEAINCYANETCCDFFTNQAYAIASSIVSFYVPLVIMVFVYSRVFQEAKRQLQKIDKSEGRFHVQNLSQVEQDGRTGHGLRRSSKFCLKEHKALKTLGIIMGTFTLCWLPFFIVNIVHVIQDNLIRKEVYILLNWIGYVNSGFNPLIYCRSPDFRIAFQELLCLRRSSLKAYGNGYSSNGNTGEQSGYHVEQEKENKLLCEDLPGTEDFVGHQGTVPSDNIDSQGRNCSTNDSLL
HNF4A DNA FP: change in binding of human HNF4A to DNA, primary screen, biochemical, fluorescence polarization, FITC-DNA; activity change, % at 10 µM; 1 h; 360,000 tested, 0.3% active; AID 1224865, 2016; in the data active = activity change above about 30%, passing the limit was not always enough;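 note: controls were the assay level and a saturating level of protein; the project sought stronger binding though the title names inhibitors; some compounds called inactive have numbers as strong as hits; positive values seem to mean higher polarization but the record does not say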
LANA-H2B inh: blockers of LANA interaction with H2A/H2B – biochemical, FP readout, HTS, primary screen. cell-free LANA-H2A/H2B peptide, fluorescence polarization. 320,000 tested, 0.6% active. AID 2629, 2010. Protein LANA1 (Human herpesvirus 8 type P (isolate GK18)), Q9QR71. inhibition, % (concentration not given with the values); in the data active = inhibition mostly above about 10%, no sharp cut-off; inactive = mostly below about 6.7%;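 note: stock transfer was 7.5 nL into about 10 µL; 0% = median of vehicle wells and 100% = median of positive control wells; one replicate is shown; the record names a cut of 25% in any replicate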
ALR H2O2 inh: inhibitors of human ALR sulfhydryl oxidase, primary screen, biochemical, H2O2 detection, HRP-luminol luminescence, single point; FAD-linked sulfhydryl oxidase ALR (Homo sapiens), P55789; purified ALR, DTT oxidation; inhibition, % (no concentration beside the values); 290,000 tested, 3.8% active;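 active = mean and each replicate at 75% or more; inconclusive = only one of the two met; inactive = neither met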;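 note: stock transfer was 7.5 nL into about 7.5 µL; 0% = neutral wells and 100% = wells with inactivated enzyme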
Target sequence (P55789 whole entry, looked up): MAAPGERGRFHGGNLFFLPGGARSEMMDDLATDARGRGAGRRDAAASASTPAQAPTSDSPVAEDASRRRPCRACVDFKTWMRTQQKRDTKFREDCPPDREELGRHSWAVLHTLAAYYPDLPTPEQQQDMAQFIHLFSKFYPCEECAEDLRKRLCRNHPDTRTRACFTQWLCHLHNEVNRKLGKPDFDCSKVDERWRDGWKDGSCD
RanGTP-Impb inh: inhibitors of RanGTP-importin-beta interaction, primary screen, biochemical, FRET, CFP-Ran, YFP-importin-beta, homogeneous; Ran GTPase (GTP-bound) - importin-beta complex; cell-free CFP-Ran/YFP-importin-beta FRET ratio; inhibition, % (concentration not given with the values); 300,000 tested, 1.1% active; AID 2216, 2009;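 active = most replicates above 15%; inconclusive = exactly half above 15%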;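 note: 0% = DMSO wells and 100% = Ran loaded with GDP instead of GTP; wells of about 40 µL received 100 nL stock; the first replicate is given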
Vif A3G: inhibitors of Vif binding to APOBEC3G peptide, primary screen, biochemical, TR-FRET, GST-Vif 1-94, biotin-A3G peptide, dose response retest (AID 1117319); Virion infectivity factor (Human immunodeficiency virus type 1 group M subtype B (isolate …; TR-FRET GST-Vif / biotin-A3G peptide binding; higher % means a stronger effect; test concentration not given here; strong numbers were not always called active; inhibition, %; hits with a dose series show IC50 in µM; 260,000 tested, 0.57% active;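 active = above the screen mean plus three standard deviations and confirmed in dose response; inconclusive = results disagree or hit not tested in dose response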;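 note: Vif residues 1-94 fused to GST binding biotinylated APOBEC3G peptide 110-148; 0% = full assay without inhibitor and 100% = GST in place of GST-Vif; retest series ran down from 100 µM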
Calb FLC: C. albicans growth inhibition with fluconazole, primary screen, CaCi-2 strain, Alamar Blue fluorescence | growth inhibition, % (concentration not given with the values) | 300,000 tested, 0.57% active | C. albicans CaCi-2 (fluconazole-resistant clinical isolate) + fluconazole, 48 h | AID 1979, 2009;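 active = most replicates above 75%; inconclusive = exactly half above 75%; inactive = most below 75%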;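 note: all wells also contain fluconazole at 8 µg/ml as a sub-toxic cotreatment; 0% = median of DMSO wells and 100% = median of geldanamycin control wells; wells of about 8 µL received 7.5 nL stock; the first replicate is given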
Starred values were filed as active, the others as inactive; i = inactive; ? = inconclusive; nt = not tested or not shown. Not all compounds are listed. The share of hits here may be higher or lower than overall.

1	COCCOC(=O)C1=C(N)OC(C)=C(C(=O)OC)C12C(=O)Nc1ccccc12 (configuration not stated)
2	COc1ccc(-n2c(=O)[nH]c3ccccc3c2=O)c(OC)c1
3	CSc1nc2ccc(C)cc2c(=O)n1-c1cccnc1
4	Cn1c(O)c(C(c2ccncc2)c2c(O)n(C)c(=S)n(C)c2=O)c(=O)n(C)c1=S
5	O=C(Nc1ccccc1Cl)OC1CN2CCC1CC2 (configuration not stated)

| Screen / compound no. | 1 | 2 | 3 | 4 | 5 |
| --- | --- | --- | --- | --- | --- |
| Vif A3G | 0% | >100µM* | nt | 1% | -3% |
| ALR H2O2 inh | 3 | nt | -7 | 4 | 0 |
| Beta2AR agonist | -3 | -1 | -1 | -8 | -4 |
| RanGTP-Impb inh | 5.4 | 5.4 | 2.6 | 0.9 | -4.2 |
| HNF4A DNA FP | -1.1 | 0.7 | -4.2 | 2.6 | -2.9 |
| Calb FLC | -4 | 25 | 11 | -17 | -4 |
| LANA-H2B inh | -1.9 | 0.3 | -2.3 | -0.4 | -3.8 |

6	Nc1nc(N)c2cnnn2n1
7	CCCN(CCC)C(=O)Cc1c(-c2ccc(Cl)cc2)nc2c(Cl)cc(Cl)cn12
8	O=[N+]([O-])CCO
9	O=C1CC(=O)N(Cc2ccccc2)C(=O)N1CCCCCCN1C(=O)CC(=O)N(Cc2ccccc2)C1=O
10	CC(=O)Nc1ccccc1C(=O)OCC(=O)c1ccc2ccccc2c1

| Screen / compound no. | 6 | 7 | 8 | 9 | 10 |
| --- | --- | --- | --- | --- | --- |
| Vif A3G | 5% | nt | nt | ? | -3% |
| ALR H2O2 inh | nt | 5 | -22 | 31 | -1 |
| Beta2AR agonist | 3 | -17 | -1 | 8 | 1 |
| RanGTP-Impb inh | nt | nt | nt | -0.7 | -1.0 |
| HNF4A DNA FP | 0.8 | -1.8 | 0.3 | 6.8 | 0.2 |
| Calb FLC | nt | nt | nt | -4 | 16 |
| LANA-H2B inh | nt | -7.6 | -7.1 | 6.7 | 3.0 |

11	CCCc1nc2ccccc2c(=O)n1-c1ccc(OC)cc1
12	CC(C)CNc1c2c(nc3ccccc13)CCC2
13	COc1cc(OC)c(OC)cc1CNCCc1ccc2c(c1)OCO2
14	Cc1ccc(NP(=O)(Oc2ccccc2F)Oc2ccccc2F)cc1C
15	OCCNCCc1c[nH]c2ccc(OCc3ccccc3)cc12

| Screen / compound no. | 11 | 12 | 13 | 14 | 15 |
| --- | --- | --- | --- | --- | --- |
| Vif A3G | -10% | nt | -4% | -7% | -9% |
| ALR H2O2 inh | nt | -5 | nt | 2 | 41 |
| Beta2AR agonist | 2 | 3 | 2 | 9 | 21 |
| RanGTP-Impb inh | 0.1 | 0.7 | -0.9 | ? | 1.3 |
| HNF4A DNA FP | -1.3 | 3.5 | 1.5 | -1.9 | -3.9 |
| Calb FLC | 13 | -2 | -1 | 14 | -13 |
| LANA-H2B inh | 0.2 | -0.9 | -5.6 | nt | 1.8 |

Pulled by structure from the list above, 2 records:
12	CC(C)CNc1c2c(nc3ccccc13)CCC2
13	COc1cc(OC)c(OC)cc1CNCCc1ccc2c(c1)OCO2

| Screen / compound no. | 12 | 13 |
| --- | --- | --- |
| Vif A3G | nt | -4% |
| ALR H2O2 inh | -5 | nt |
| Beta2AR agonist | 3 | 2 |
| RanGTP-Impb inh | 0.7 | -0.9 |
| HNF4A DNA FP | 3.5 | 1.5 |
| Calb FLC | -2 | -1 |
| LANA-H2B inh | -0.9 | -5.6 |

Next structures follow:
16	CN1/C(=C\C=C2C(=O)NC(=S)NC2=O)C(C)(C)c2ccccc21
17	CCCCn1c(O)c(C(C)=NCc2ccc(F)cc2)c(=O)[nH]c1=O
18	CCSC(=O)N1CCCCCC1
19	Cn1c(O)c(C(=O)c2ccccc2F)c(=O)n(C)c1=O
20	COc1ccccc1NC(=O)N1C[C@@H]2C[C@@H](C1)c1cccc(=O)n1C2

| Screen / compound no. | 16 | 17 | 18 | 19 | 20 |
| --- | --- | --- | --- | --- | --- |
| Vif A3G | -36% | -1% | nt | -1% | nt |
| ALR H2O2 inh | nt | -1 | 11 | -8 | -7 |
| Beta2AR agonist | 1 | 8 | -5 | -7 | 4 |
| RanGTP-Impb inh | i | 1.0 | nt | -2.2 | 4.6 |
| HNF4A DNA FP | 60 | 1.1 | 0.1 | -0.1 | 0.8 |
| Calb FLC | -2 | 9 | nt | 5 | 7 |
| LANA-H2B inh | nt | -0.5 | -0.5 | 3.4 | -4.6 |

21	C=C(C=O)C[C@@H]1C[C@H](O)C2OC3C[C@]4(C)OC5/C=C\CC6OC7C(CC=CCC6OC5CCCC4OC3CC2O1)OC1CC2OC3CC(=O)OC3C[C@@H](C)C[C@@]2(C)OC1C[C@@H]7C (some centres not stated)
22	C[C@]12CCC3C(CC[C@H]4C[C@@H](O)CC[C@]34C)C1CC[C@@H]2OC(=O)[C@H](N)CCCCN (some centres not stated)
23	NC(=O)Cn1cc(C(=O)c2ccccc2F)c2ccccc21
24	CN1CCN(c2cc(N3CCCC3)c([N+](=O)[O-])cc2F)CC1
25	O=C(N/N=C/c1c(O)n(Cc2ccccc2)c(=O)[nH]c1=O)c1ccccc1
26	O=[N+]([O-])NC1=NCN(Cc2ccco2)CN1Cc1ccco1

| Screen / compound no. | 21 | 22 | 23 | 24 | 25 | 26 |
| --- | --- | --- | --- | --- | --- | --- |
| Vif A3G | 2% | 1% | -4% | 22% | 29% | ? |
| ALR H2O2 inh | 1 | -2 | -2 | -5 | 9 | -3 |
| Beta2AR agonist | nt | 10 | 0 | -15 | -5 | 12 |
| RanGTP-Impb inh | -1.7 | nt | 3.0 | -1.3 | 2.0 | 1.8 |
| HNF4A DNA FP | nt | 7.1 | -1.9 | -1.0 | 4.3 | -0.6 |
| Calb FLC | 12 | nt | -12 | 0 | -5 | -5 |
| LANA-H2B inh | -2.2 | -6.3 | 3.0 | -3.2 | 3.2 | 0.7 |

Excerpt: entries 16–26
16	CN1/C(=C\C=C2C(=O)NC(=S)NC2=O)C(C)(C)c2ccccc21
17	CCCCn1c(O)c(C(C)=NCc2ccc(F)cc2)c(=O)[nH]c1=O
18	CCSC(=O)N1CCCCCC1
19	Cn1c(O)c(C(=O)c2ccccc2F)c(=O)n(C)c1=O
20	COc1ccccc1NC(=O)N1C[C@@H]2C[C@@H](C1)c1cccc(=O)n1C2
21	C=C(C=O)C[C@@H]1C[C@H](O)C2OC3C[C@]4(C)OC5/C=C\CC6OC7C(CC=CCC6OC5CCCC4OC3CC2O1)OC1CC2OC3CC(=O)OC3C[C@@H](C)C[C@@]2(C)OC1C[C@@H]7C (some centres not stated)
22	C[C@]12CCC3C(CC[C@H]4C[C@@H](O)CC[C@]34C)C1CC[C@@H]2OC(=O)[C@H](N)CCCCN (some centres not stated)

| Screen / compound no. | 16 | 17 | 18 | 19 | 20 | 21 | 22 |
| --- | --- | --- | --- | --- | --- | --- | --- |
| Vif A3G | -36% | -1% | nt | -1% | nt | 2% | 1% |
| ALR H2O2 inh | nt | -1 | 11 | -8 | -7 | 1 | -2 |
| Beta2AR agonist | 1 | 8 | -5 | -7 | 4 | nt | 10 |
| RanGTP-Impb inh | i | 1.0 | nt | -2.2 | 4.6 | -1.7 | nt |
| HNF4A DNA FP | 60 | 1.1 | 0.1 | -0.1 | 0.8 | nt | 7.1 |
| Calb FLC | -2 | 9 | nt | 5 | 7 | 12 | nt |
| LANA-H2B inh | nt | -0.5 | -0.5 | 3.4 | -4.6 | -2.2 | -6.3 |

23	NC(=O)Cn1cc(C(=O)c2ccccc2F)c2ccccc21
24	CN1CCN(c2cc(N3CCCC3)c([N+](=O)[O-])cc2F)CC1
25	O=C(N/N=C/c1c(O)n(Cc2ccccc2)c(=O)[nH]c1=O)c1ccccc1
26	O=[N+]([O-])NC1=NCN(Cc2ccco2)CN1Cc1ccco1

| Screen / compound no. | 23 | 24 | 25 | 26 |
| --- | --- | --- | --- | --- |
| Vif A3G | -4% | 22% | 29% | ? |
| ALR H2O2 inh | -2 | -5 | 9 | -3 |
| Beta2AR agonist | 0 | -15 | -5 | 12 |
| RanGTP-Impb inh | 3.0 | -1.3 | 2.0 | 1.8 |
| HNF4A DNA FP | -1.9 | -1.0 | 4.3 | -0.6 |
| Calb FLC | -12 | 0 | -5 | -5 |
| LANA-H2B inh | 3.0 | -3.2 | 3.2 | 0.7 |
